Compound activity as filed in PubChem BioAssay.
GIV-Gai inh: inhibitors of GIV GBA-motif binding to rat Galpha-i3 | 210,000 tested, 0.42% active | percent of control (FP), % (concentration not given with the values) | Galpha-i3/FITC-GIV peptide fluorescence polarization, 90 min; active compounds read low; scaled: aluminum fluoride 0%, vehicle 100% | P08753;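 active = replicate mean at 85% of control or lower, very high polarization wells dropped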;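 also: wells of about 15 µL received 100 nL stock; the first replicate is given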
Target sequence (P08753 whole entry, looked up): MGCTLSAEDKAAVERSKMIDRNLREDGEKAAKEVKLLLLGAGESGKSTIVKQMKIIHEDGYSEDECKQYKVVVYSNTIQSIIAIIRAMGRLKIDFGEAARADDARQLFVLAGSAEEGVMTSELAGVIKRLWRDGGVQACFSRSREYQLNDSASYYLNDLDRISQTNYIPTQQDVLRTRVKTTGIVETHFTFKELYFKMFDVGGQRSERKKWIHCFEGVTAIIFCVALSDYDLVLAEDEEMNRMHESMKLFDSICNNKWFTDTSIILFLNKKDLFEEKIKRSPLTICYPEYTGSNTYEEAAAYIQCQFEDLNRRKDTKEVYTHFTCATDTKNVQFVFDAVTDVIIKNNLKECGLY
Sa growth 42C: inhibitors of Staphylococcus aureus growth at 42 °C; AID 720641; S. aureus RN4220 growth, OD600, 20 h; active compounds read low; relative growth, % (concentration not given with the values); 170,000 tested, 0.53% active;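 active = growth at 42 °C up to 50% and 20 or more points under that at 30 °C, or under 10% at both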;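 also: 300 nL library stock went into each well; scaled to the means of positive and negative controls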
HCMV UL50-53 inh: cytomegalovirus nuclear egress complex inhibition; HTRF UL50-UL53 interaction, normalized percent inhibition; inhibition, % (no concentration beside the values); 190,000 tested, 0.15% active; AID 1918969;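 active = both replicates at 50% or more, plus weaker picks with an unusually low signal ratio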;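 also: stock transfer was 100 nL into about 20 µL; 0% = negative control wells and 100% = wells with untagged competitor protein; inactives centre near -12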
Sa growth 42C second temp: recorded beside Sa growth 42C, whose call it bears; relative growth, %; measured here: growth at 30 °C;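 optical density after 20 h as mean of two plates; 100% = untreated growth and lower means inhibition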
* = called active by the depositor; . = no result given; & = joins results of further samples.

structure	GIV-Gai inh	Sa growth 42C	Sa growth 42C second temp	HCMV UL50-53 inh
COc1cc(NC(=O)c2ncn(-c3ccccc3)n2)cc(OC)c1	108	115	91	-8
Cc1nc(Nc2ccc(S(=O)(=O)N3CCCC3)cc2)c2nnn(Cc3ccccc3)c2n1	103	102	75	-9
Cc1ccccc1C1C=C(c2ccc(Cl)cc2)Nc2nnnn21 (stereo not given)	104	101	87	.
CCN(C(=O)Cn1nnc(-c2ccccc2)n1)c1ccccc1	102	92	103	8
CC1Sc2cc(S(=O)(=O)N3CCC(Cc4ccccc4)CC3)ccc2NC1=O (stereo not given)	104	112	88	.
CCC(=O)N1CCCc2cc(S(=O)(=O)N3CCC(C(=O)Nc4ccc(F)c(F)c4)CC3)ccc21	104	114	97	.
CCOC(=O)N1CCN(S(=O)(=O)N2CCCC(C(=O)NCc3cccc(OC)c3)C2)CC1 (stereo not given)	104	95	89	.
COC(=O)c1ccccc1NC(=O)c1ccc(Cn2cc(Cl)cn2)cc1	99	110	91	.
COc1cccc(CNC(=O)CCCn2ncn3c(cc4occc43)c2=O)c1OC	109	78	86	-2
O=C(N=c1scc(-c2ccccc2)n1-c1ccccc1)c1ccco1	103	102	102	6
O=S(=O)(Cc1ccccc1)NC1CCCCC1	.	103	91	-13
COc1cc(C2NC(C(=O)O)Cc3[nH]cnc32)cc(Br)c1OCc1ccccn1 (stereo not given)	107	72	100	0
Cc1ccc2c(=O)c(C(=O)c3ccccc3)cn(CC(=O)NCC3CCCO3)c2n1 (stereo not given)	102	.	.	0
CCCCN(c1nc(C)cc(OC)n1)S(=O)(=O)c1ccccc1Cl	103	.	.	-5
COC(=O)c1sc2nc[nH]c(=O)c2c1CC(=O)O	.	102	95	-24
CC1CCC(C(C)C)C(NC(=O)c2ccco2)C1 (stereo not given)	94	99	86	28
O=S(=O)(c1ccc(Cl)cc1)c1nc(-c2ccccc2)oc1NC1CC1	104	.	.	24
COc1ccccc1C(=O)Nc1ccc2nc(SCC(=O)N3CCCc4ccccc43)sc2c1	102	123	95	8
COc1ccc(OC)c(C2CC(=O)c3c([nH]c(C(=O)OCC4CCCCC4)c3C)C2)c1 (stereo not given)	103	91	92	0
O=C1C(O)=C(c2ccccc2)C(c2ccc(Cl)cc2)N1Cc1ccc(F)cc1 (stereo not given)	100	.	.	-22
COc1ccc(C(=O)Nc2ccc(-c3nc4cc(C)ccc4o3)c(O)c2)cc1	100	104	84	-55
COc1ccc(CCNC(=O)Cn2c(=O)[nH]c3ccsc3c2=O)cc1OC	105	100	88	-5
O=C(Cn1ncc2c(=O)oc3ccccc3c21)N1CCN(c2ccc(Cl)cc2)CC1	104	109	91	-21
Cn1c(=O)c2c(-c3ccccc3)n3c(c2n(C)c1=O)C(c1cc(Cl)ccc1O)Nc1ccccc1-3 (stereo not given)	103	109	94	-14
C=CCn1c(=S)sc2c(Sc3nnc(-c4ccc(Cl)cc4)o3)ncnc21	105	124	94	45

Compounds listed so far containing a thiophene ring, fused or not:
structure	GIV-Gai inh	Sa growth 42C	Sa growth 42C second temp	HCMV UL50-53 inh
COC(=O)c1sc2nc[nH]c(=O)c2c1CC(=O)O	.	102	95	-24
COc1ccc(CCNC(=O)Cn2c(=O)[nH]c3ccsc3c2=O)cc1OC	105	100	88	-5

Continuation.
structure	GIV-Gai inh	Sa growth 42C	Sa growth 42C second temp	HCMV UL50-53 inh
COc1ccc(C2C3=C(CC(c4ccco4)CC3=O)Nc3ccccc3N2C(=O)C(F)(F)F)cc1 (stereo not given)	107	.	.	-4
C=CCn1c(=S)sc2c(N3CCN(c4ccccc4)CC3)ncnc21	102	96	86	-140
Cc1ccc2oc3c(c(=O)c2c1)C(c1ccccc1F)N(CCCN(C)C)C3=O (stereo not given)	100	94	89	-29
Cc1c(C(=O)NCCN2CCOCC2)oc2ccc3c(c12)C(O)CC1(CCCCCC1)O3 (stereo not given)	104	92	82	-8
Brc1ccc(-c2cc3n(c2)CCc2ccccc2-3)cc1	.	120	83	-10
COc1ccc(-n2cnc3cc(NC(=O)c4cccs4)ccc32)cc1	96	68	28	.
O=C(/C=C/N1C(=O)c2ccccc2C1=O)c1ccccc1	96	85	102	.
Cc1ccc(NC(=O)Cn2nc(C(F)(F)F)c3c2CCC3)cc1C	101	99	87	-35
Cn1c(=O)n(CCN2CCOCC2)c(=O)c2c1nc1n2CCCN1c1ccccc1	98	.	.	-22
Cc1cc(OC(C)C)nc(N)n1	100	99	87	5
CCCNCc1cc(=O)n2[nH]c(-c3ccc(C(C)(C)C)cc3)nc2n1	99	.	.	-21
Cc1cccc(C(=O)Nc2sc3c(c2C(=O)Nc2ccccc2)CCC3)c1	106	95	81	-62
CC(C)C(=O)N=C1c2ccccc2CN1c1ccc(C#N)cc1	.	72	94	-1
Cc1cc(C)nc(NC(c2ccc(Cl)cc2)c2cc(C)sc2NC(=O)c2ccccc2)n1 (stereo not given)	103	.	.	-13
CC1CC(=O)C2=C(C1)Nc1ccccc1N=C2 (stereo not given)	100	99	96	14
COc1ccccc1C1CCN(Cc2cn[nH]c2-c2ccccc2)CC1	102	106	88	-11
CCN1CCN(CCCNC(=O)c2cc3c(s2)-c2c(C)nn(-c4ccccc4)c2CC3)CC1	107	.	.	-76
Cc1c(C(=O)Nc2cccc(-c3nc4ccccc4s3)c2)oc2ccccc12	107	99	84	14
C=CCn1c(SCC(=O)NCCN2CCOCC2)nc2sc(C)c(C)c2c1=O	100	.	.	-26
COc1ccc(Oc2c(C)oc3cc(OC(=O)N4CCOCC4)ccc3c2=O)cc1	105	90	87	-29
COc1ccc(Sc2nn3nnnc3c3ccccc23)cc1	103	92	84	27
CCN(C(=O)c1cc2c(=O)n3cccc(C)c3nc2s1)c1ccc(C)c(C)c1	100	100	85	-12
COc1ccc(/C=N/OCC(=O)N2CCOCC2)cc1	100	103	82	-20
O=C1C=C(C(F)(F)F)c2ccc(NC3CCCCC3)c3cccc1c23	-84*	108	89	.
Fc1ccccc1-c1ccc(CNCc2ccccn2)o1	97	.	.	-14
Cc1cccc(S(=O)(=O)Nc2cccc(-c3cn4c(C)cccc4n3)c2)c1	101	.	.	-12
O=C(COc1ncnc2ccccc12)NCCc1ccccc1	.	87	96	2
CCOCC(=O)Nc1nnc(C2CCCCC2)s1	97	100	97	-3
Cc1ccc2[nH]c3c(c2c1)CCCC3C#N (stereo not given)	103	91	71	-15
O=C(c1ccccc1)N1CCN(c2ccc(N3CCOCC3)nn2)CC1	104	85	84	-58
CN(C)S(=O)(=O)c1cccc(COC(=O)c2cccnc2SCC(=O)Nc2ccc3c(c2)OCO3)c1	.	98	84	-16
CCNc1nc(-c2cccnc2)nc2ccccc12	.	121	98	-12
CC1Cc2ccc(F)cc2CN1C(=O)c1ccc(COc2ccccc2Br)o1 (stereo not given)	104	79	77	.
O=C(NCCC1=CCCCC1)c1cc(Sc2ccc(F)cc2)nc2ccccc12	101	105	87	.
O=C(NC1CCCCC1)NC1CCN(S(=O)(=O)c2cccc(Cl)c2)CC1	103	99	80	-3
Cc1csc(NC(=O)C2CCCN(S(=O)(=O)c3cc(-c4noc(C5CCC5)n4)sc3C)C2)n1 (stereo not given)	106	.	.	-6
O=C(O)C1CSC(c2ccco2)=N1 (stereo not given)	101	74	91	-7
O=C(NCCO)c1cccc2c1-c1ccc(I)cc1C2	98	96	91	-15
CCn1c(=O)c(-c2noc(CCC(=O)Nc3ccc(F)cc3F)n2)nn(-c2ccccc2)c1=O	105	.	.	-28
CCOC(=O)/N=C(/c1ccc(Cl)cc1)c1cc2ccccc2cn1	100	101	90	-47
O=C(Oc1ccc2c(c1)OCO2)C12CC3CC(CC(C3)C1)C2	.	87	94	-14
O=C(Cn1c(=O)c2cccn2c2cccnc21)N1CCCC1	97	92	84	.
CCOC(=O)/C=C1\SCC(=O)N1Cc1cc(Cl)cc2c1OCOC2	.	91	93	-10
O=C(CSc1nc2ccccc2c(=O)n1CCC(=O)NC1CCCCC1)Nc1ccccc1Cl	102	90	91	.
CN(Cc1ccccc1)C(=O)Cn1c(=O)oc2ccccc21	.	86	92	-5
O=C(NCc1ccc2c(c1)OCO2)c1cc(-c2cccnc2)on1	101	.	.	-15
CCOC(=O)c1c(C)cccc1NC(=O)c1cccs1	100	101	80	-12
Nc1nc(OCc2ccccc2)c2[nH]cnc2n1	96	.	.	-19
COC(=O)c1ccc(NC(=S)N2CCOCC2)cc1	.	83	88	6
Cc1nc(-c2cc(S(=O)(=O)N3CCC(C(=O)N4CCOCC4)CC3)c(C)s2)no1	106	.	.	0

The results go on:
structure	GIV-Gai inh	Sa growth 42C	Sa growth 42C second temp	HCMV UL50-53 inh
CCN(C(=O)c1cc2cc(OC)ccc2oc1=O)c1cccc(C)c1	98	100	99	-31
CC(C)CC(=O)Nc1ccc2nc(SCC(=O)N3CCCC3)sc2c1	100&106	104	84	-14&14
O=C(Cn1nc2c(N3CCOCC3)nc3ccccc3n2c1=O)N1CCCc2ccccc21	106	.	.	-15
COc1cc(C2N=C(N)Nc3nc4ccccc4n32)ccc1OCC(=O)O (stereo not given)	110	112	89	-8
COc1cc2c(C(=O)Nc3ccc(F)cc3)cn(CC(C)C)c(=O)c2cc1OC	101	108	85	.
CN(C)/C=N/c1nnc(Sc2ccnc3cc(Cl)ccc23)s1	108	90	92	-18
CN(CC(=O)NC1CCCCC1)S(=O)(=O)c1ccccc1	.	89	85	-12
CCOC(=O)c1c(C)oc2c1c(C=NC1CCCC1)c(O)c1ccccc12	106	97	93	.
CCOc1ccc(CSc2ncn[nH]2)cc1	99	90	85	-4
O=S(=O)(NCc1ccccc1)N1CCCCC1	113	102	100	-12
Cc1nc2nc(-c3ccccc3)nn2c(C)c1CC(=O)N1CCC(C)CC1	100	.	.	-22
O=S(=O)(c1ccc(Cl)cc1)c1ccc(N2CCN(c3ncccn3)CC2)nn1	101	.	.	-24
N#CCc1ccc(Oc2c(Cl)cncc2Cl)cc1	103	104	61	-1
O=C(Nc1ccccc1)c1cnn2c1NC(c1ccccc1)=CC2c1ccccc1 (stereo not given)	100	.	.	-9
Cc1ccc(SC(C)C(=O)Nc2ccc3c(c2)OCO3)cc1 (stereo not given)	101	102	99	-10
CN1CCN(C(=S)Nc2ccc(S(N)(=O)=O)cc2)CC1	102	102	101	3
CCC(C)NC(=O)Cn1c(=O)n(Cc2ccccc2Cl)c(=O)c2cc(OC)c(OC)cc21 (stereo not given)	101	128	91	.
COC(=O)c1c(NC(=S)n2cc(C)cn2)sc2c1CCC(C)C2 (stereo not given)	109	102	100	7
Cc1cc(NC(=S)N(C)C)ccc1Br	101	94	102	8
O=C(CCSc1ccc(Cl)cc1)Nc1ccccc1	.	97	53	3
COc1ccc(S(=O)(=O)NCc2cn3ccccc3n2)cc1F	98	111	92	.
Cc1ccc2c(c1)sc1nc(=O)n(-c3ccccc3)c(=O)n12	100	90	87	-23
O=C(CSCc1ccc(F)cc1)Nc1cccc2nsnc12	104	.	.	-33
COC(=O)c1ccc(S(N)(=O)=O)n1C	103	103	104	2
O=C(O)c1ccc(Cn2cccn2)cc1	100	87	93	-26

Part of the list above, field by field:
molecule: Cc1nc2nc(-c3ccccc3)nn2c(C)c1CC(=O)N1CCC(C)CC1
  GIV-Gai inh: 100; Sa growth 42C: .; Sa growth 42C second temp: .; HCMV UL50-53 inh: -22
molecule: COC(=O)c1c(NC(=S)n2cc(C)cn2)sc2c1CCC(C)C2 (stereo not given)
  GIV-Gai inh: 109; Sa growth 42C: 102; Sa growth 42C second temp: 100; HCMV UL50-53 inh: 7
molecule: COc1ccc(S(=O)(=O)NCc2cn3ccccc3n2)cc1F
  GIV-Gai inh: 98; Sa growth 42C: 111; Sa growth 42C second temp: 92; HCMV UL50-53 inh: .

(continued)
structure	GIV-Gai inh	Sa growth 42C	Sa growth 42C second temp	HCMV UL50-53 inh
Cc1ccc(C)c(OCc2nnc(SC/C(O)=C(\C#N)c3nc4ccccc4[nH]3)o2)c1	.	85	91	-10
Cc1c(NC(=O)Nc2ccc(Cl)c(C(F)(F)F)c2)c(=O)n(-c2ccccc2)n1C	101	102	107	68
Cc1noc(C)c1COC(=O)[C@H](C)N=C1NS(=O)(=O)c2ccccc21	.	87	91	20
COc1ccc(CNC(=O)c2ccc(CS(=O)(=O)c3ccccc3OC)o2)cc1	103	110	89	.
CCS(=O)(=O)NCCc1csc(-c2ccccc2)n1	100	88	79	.
CCOC(=O)c1cc(S(=O)(=O)N2CCCC2C(=O)NC2CCCC2)cn1C (stereo not given)	114	.	.	-3
CC(=O)N1C(=O)NC2NC(=O)N(C(C)=O)C21 (stereo not given)	102	88	89	-15
Cc1nn2c(=O)cc(COC(=O)c3ccc(NC(=O)COc4ccc(C)c(C)c4)cc3)nc2s1	102	93	101	.
CCN(C(=O)Cn1c(=O)oc2cc(S(=O)(=O)N3CCCC3)ccc21)c1cccc(C)c1	101	105	99	5
COc1ccc2ccccc2c1S(N)=O (stereo not given)	101	.	.	-35
N#C/C(=C\c1ccc(Cl)cc1)c1ccccc1	102	55	81	-24

Not a hit list, and some 0.83% of all compounds hit somewhere here.
